RE007 growth inh: less growth of the S. pombe RE007 Vpr strain; S. pombe RE007 Vpr strain, BacTiter-Glo ATP luminescence, 24 h; control for the full effect not named in the record; Potency, µM (titrated, usually from 92.2 µM), for inactives: top-dose activity change, negative = less growth; 0.21% of 360,000 active; AID 651644; active = well fitted falling curve with a large enough effect; inconclusive = small, poorly fitted or top-dose-only effect; inactive = no such curve, though single readings can be large or run the other way;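 note: % is set by controls: 0 for no effect and ±100 for the full control effect; nearly all actives have a fitted effect of over 50% in size; the assay follows cell death caused by Vpr and the record does not say whether a fall means rescue or toxicity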
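Fission yeast RE007 carrying one integrated HIV-1 vpr copy, seeded at OD 0.01 in PMG+AL medium with 23 nL pinned compound. Grown 24 h at 30 degrees; viability read by BacTiter-Glo luminescence after 5 min.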
SARS PLP yeast: SARS-CoV PLP inhibition in yeast; S. cerevisiae expressing SARS-CoV PLpro, growth rescue; control for the full effect not named in the record; Potency, µM (titrated, usually from 32.9 µM), without a hit: top-dose activity, positive = growth rescue; 0.19% of 330,000 active; active means well fitted rising curve with a large enough effect; inconclusive means small, poorly fitted or top-dose-only effect; inactive means no such curve, though single readings can be large or run the other way; note: 0% is about no effect; nearly all actives have a fitted effect of over 55% in size; growth read by luminescence after 48 h
LASV entry inh: blocks Lassa virus binding to or entry into cells; Lassa virus pseudotype entry inhibition, cell reporter; control for the full effect not named in the record; Potency, µM (top dose mostly 37.9 µM), for the others: at the top dose activity change, negative = inhibition, actives largely listed as inhibitors; 1.2% of 300,000 active; AID 540256; active means well fitted inhibition curve with a large enough effect; inconclusive means small, poorly fitted or top-dose-only effect, or effect the other way; inactive means flat fitted curve, though single readings scatter; tested in HEK293 cells; note: % is set by controls: 0 for no effect and ±100 for the full control effect; nearly all actives have a fitted effect of over 50% in size; luciferase read-out
MARV entry inh: blocks Marburg virus binding to or entry into cells; Marburg virus pseudotyped entry inhibition, cell reporter; control for the full effect not named in the record; about a third of the inactives were read at about 46 µM; Potency, µM (top dose mostly 37.8 µM), without a hit: at the highest dose activity change, negative = inhibition, usual class: inhibitors; 1.8% of 300,000 active; active = well fitted inhibition curve with a large enough effect; inconclusive = small, poorly fitted or top-dose-only effect, or effect the other way; inactive = flat fitted curve, though single readings scatter; tested in HEK293 cells; about a fifth of its hits are not listed in these tables; note: % is set by controls: 0 for no effect and ±100 for the full control effect; luciferase read-out
Cruzain inh noDet: blocks cruzain activity in detergent-free assay; purified cruzain, Z-FR-AMC fluorescence, no detergent; Potency, µM, without a hit: max response, negative = inhibition, usual class: inhibitors; 2.3% of 200,000 active; P25779;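 note: plate controls were enzyme without inhibitor for no effect and buffer without enzyme for full effect; nearly all actives have a fitted effect of over 40% in size; top concentration of the series not given in the record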
Target sequence (P25779 123-467 limits assumed): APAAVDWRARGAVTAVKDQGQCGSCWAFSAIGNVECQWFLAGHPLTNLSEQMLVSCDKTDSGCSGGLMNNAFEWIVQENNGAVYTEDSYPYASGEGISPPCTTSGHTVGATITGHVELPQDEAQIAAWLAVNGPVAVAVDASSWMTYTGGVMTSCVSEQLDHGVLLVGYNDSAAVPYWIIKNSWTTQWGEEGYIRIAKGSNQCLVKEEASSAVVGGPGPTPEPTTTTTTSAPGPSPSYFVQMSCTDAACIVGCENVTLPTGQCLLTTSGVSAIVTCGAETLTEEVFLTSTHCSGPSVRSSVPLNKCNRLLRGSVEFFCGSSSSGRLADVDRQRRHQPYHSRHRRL
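Detergent-free condition (0.00005% Triton X-100) in acetate buffer pH 5.5 with DTT. 1.5 nM enzyme and compound were pre-mixed 15 min, then 2 uM Z-FR-AMC substrate added; reaction progress from fluorescence change between first and third reads (60 s).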
NS1 function inh: blocks influenza NS1 protein function | AID 2326 | S. cerevisiae slowed by influenza A NS1, growth recovery by OD600 | Potency, µM (top dose mostly 46.1 µM), for the others: at the top dose activity, positive = more growth | 0.4% of 270,000 active; active means well fitted rising curve with a large enough effect; inconclusive means small, poorly fitted or top-dose-only effect; inactive means no such curve, though single readings can be large or run the other way; note: nearly all actives have a fitted effect of over 50% in size
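A cell-based growth assay was used: compounds that relieve NS1-induced slow growth of budding yeast raise OD600. Assay medium was yeast nitrogen base with ammonium sulphate and -URA supplement, pH 6.0, with 2% galactose.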
2A StopGo: lowers the luciferase signal of an FMDV 2A StopGo reporter; Potency, µM (highest dose often 57.9 µM), without a hit: at the highest dose signal change, negative = less light; 1.2% of 410,000 active; human cells with a luciferase reporter of 2A StopGo recoding; control for the full effect not named in the record; active = well fitted falling curve with a large enough effect; inconclusive = small, poorly fitted or top-dose-only effect; inactive = no such curve, though single readings can be large or run the other way; tested in HEK293T cells; note: % is set by controls: 0 for no effect and ±100 for the full control effect; nearly all actives have a fitted effect of over 45% in size; luciferase light after 4 h
Cruzain Triton: inhibitors of Trypanosoma cruzi cruzain with detergent | purified cruzain, Z-FR-AMC fluorescence, 0.01% Triton | Potency, µM, inactives show max response, negative = inhibition, hits mostly inhibitors | 0.43% of 200,000 active | P25779;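 note: plate controls were neutral wells for no effect and buffer without enzyme for full effect; nearly all actives have a fitted effect of over 40% in size; top concentration of the series not given in the record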
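Enzyme 1.5 nM, Z-FR-AMC 2 uM, NaOAc 100 mM pH 5.5, DTT 5 mM, Triton X-100 0.01%; 15 min RT compound preincubation; kinetic ex360/em450, 60 s delta.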
Active calls of the source: *; ? = inconclusive; / = not tested or not shown; & = joins results of further samples; [ ] = remark or other dose. Unless noted, calls come from the whole dose curve; as a rule, active = well fitted curve in the direction sought with a large enough effect; inconclusive = small, poorly fitted or top-dose-only effect, or another doubt; inactive = no such curve, though single readings can be large; an effect the other way counts as inactive or inconclusive. Potency is the fitted concentration of half-maximal effect.

SMILES	RE007 growth inh	SARS PLP yeast	LASV entry inh	MARV entry inh	Cruzain inh noDet	NS1 function inh	2A StopGo	Cruzain Triton
Cc1cc(C)cc(NC(=O)CSc2nc(N)c(NC(=O)c3cccs3)c(=O)[nH]2)c1	-1%	15%	12%	23%	?	16%	5%	0.7%
O=C(NCCc1ccccc1)NC1CCCCC1	12%	?	?	12%	3%	6%	-7%	3.9%
Cc1cc(C)c(C(=O)NNC(=O)c2cccnc2)c(C)c1	-4%	-1%	5%	-10%[46.1 µM]	/	-5%	-18%	/
O=C(CN(Cc1ccccc1)S(=O)(=O)c1ccc(S(=O)(=O)N2CCOCC2)cc1)Nc1ccccc1	-2%	2%	-8%	?	-13%	-6%	9%	-1.1%
CCN(CC)C(=O)COc1cc(C)cc2oc(=O)cc(-c3ccccc3)c12	-8%	-14%	?	-22%	-5%	-4%	?	-3.1%
CCCn1cc(S(=O)(=O)c2ccc(OC)cc2)c(=O)c2cc(OCC)ccc21	4%	22%	/	/	/	5%	-4%	/
Cc1ccc(F)cc1NC(=O)CSc1ncccn1	10%	4%	-1%[46.1 µM]	-12%[46.1 µM]	/	/	13%	/
CCCCN(C(=O)c1nn(C)c(=O)c2ccccc12)c1c(N)n(CC(C)C)c(=O)[nH]c1=O	-4%	-1%	12%	1%	/	/	-6%	/
O=C(c1ccccc1Cl)N1CCNCC1	-18%	9%	5%	?	11%	5%	-4%	8.2%
Cc1ccc(-n2c(SCC(=O)NCC3CCCO3)nnc2-c2ccoc2C)cc1 (stereo not drawn)	2%	3%	13%	-4%[46.1 µM]	-10%	-7%	-11%	2.6%
OC1NC(=S)N(c2ccccc2)C1O (stereo not drawn)	-7%	-1%	/	/	/	-1%	2%	/
Cc1ccc(S(=O)(=O)N(C)CC(=O)Nc2cc(C)ccn2)cc1	-1%	-5%	-8%	?	/	/	26%	/
CNC(=O)c1c[nH]n2c(=O)c(Cc3ccccc3F)c(C)nc12	7%	-9%	/	/	-6%	-10%	-4%	4.6%
Cc1cc(C)n2nc(SCCCC(=O)c3ccc(F)cc3)nc2n1	-4%	-1%	?	?	/	/	-15%	/
O=C(CCn1cccc1)Nc1nccs1	0%	-6%	3%	0%	11%	5%	-7%	3.9%
COCC(=O)Nc1ccc(S(=O)(=O)NCCc2ccccc2)cc1	-8%	-6%	-5%	-13%	5%	6%	6%	-0.3%
CCOC(=O)c1c(C)[nH]c(C)c1C(=O)COC(=O)c1nc2nccc(C)n2n1	2%	1%	?	?	/	/	1%	/
CN1CCN(c2ccc(NC(=S)NC(=O)c3cccc4ccccc34)cc2)CC1	-9%	-3%	/	/	/	-19%	12%	/
O=C(N/N=C/c1c(Nc2cccc(C(F)(F)F)c2)nc2ccccn2c1=O)c1ccccc1[N+](=O)[O-]	2%	?	2%	29%	-8%	2%	-1%	-4.0%
COc1ccc(CNC(=O)[C@H](C)NC(=O)C2CCN(S(=O)(=O)c3ccccc3)CC2)cc1	-12%	3%	/	/	/	-1%	-17%	/
O=C(CN1CCN(S(=O)(=O)c2ccc(F)cc2)CC1)Nc1ccc(Cl)c(C(F)(F)F)c1	5%	-8%	11µM*	?	15%	-69%	28µM*	-6.9%
COc1ccccc1S(=O)(=O)Nc1ccc2cn[nH]c2c1	11%	18%	3%	-25%	-3%	5%	-1%	1.0%
Cn1c(=O)c2c(nc(SCC(=O)NCc3ccc4c(c3)OCO4)n2Cc2ccccc2)n(C)c1=O	-7%	4%	7%	-12%&-12%	-14%	4%	0%	3.7%
COc1ccc(C(=O)CSc2nnc(C3CCCCC3)n2N)c(OC)c1	1%	-8%	?	?	-18%	-1%	0%	-2.7%
Cc1ccc(-c2nc(SCC(=O)NCC3CCCO3)c(-c3ccc(Cl)cc3)[nH]2)cc1 (stereo not drawn)	1%	2%	-1%	2%	4%	2%	-16%	-18%
Cc1c(C(=O)NCc2ccccc2)sc2nc3n(c(=O)c12)CCCCC3	/	/	-7%[46.1 µM]	/	-8%	/	21%	-2.4%
Cc1ccc(NC(=O)CN2C(=O)S/C(=C\c3ccccn3)C2=O)cc1	8%	-1%	/	/	/	2%	15%	/
CCOC(=O)/C(=C/Nc1ccccc1)[N+](=O)[O-]	-4%	-3%	6%	3%	4%	10%	19%	-9.1%
CC(C)(C)OC(=O)NCCc1nnc(SCC(=O)Nc2cccc(Cl)c2)o1	12%	4%	0%	?	11%	-3%	4%	4.3%
CC1(O)c2ccccc2C(=O)N1CCc1ccccc1F (stereo not drawn)	-4%	-5%	?	9%	7%	-21%	34%[activator]	-4.5%
CC(=O)N1CCN(C(=O)c2ccc(OC3CCN(CCc4ccccc4)CC3)cc2)CC1	24%	?	-2%	?	/	11%	-15%	/
COc1cc(/C=N/n2c(C)n[nH]c2=S)ccc1OCc1ccc(F)cc1	-2%	8%	-12%	4%	-11%	-27%	33%[activator]	-3.7%
CCOc1ccc(C(=O)c2cn(CC(=O)Nc3ccc(Cl)cc3)c3cc4c(cc3c2=O)OCO4)cc1	/	/	4%[46.1 µM]	-2%[46.1 µM]	?	/	0%	-2.5%
CCOC(=O)Cn1cc(/C=C(\C#N)C(=O)N2CCOCC2)c2ccccc21	1%	0%	2%	3%	/	-3%	43%[activator]	/
NC(=O)COC(=O)c1ccc2noc(-c3ccccc3)c2c1	-17%	0%	/	/	/	4%	25%	/
Nc1nonc1-n1nnc(C(=O)N/N=C/c2ccc(F)cc2)c1-c1cccs1	-4%	1%	-6%[46.1 µM]	-17%[46.1 µM]	/	-6%	2%	/
CN(C)S(=O)(=O)c1ccc(N2CCCC2)c(C(=O)Nc2ccccc2N2CCOCC2)c1	3%	3%	-14%	?	?	-3%	3%	-5.9%
O=S(=O)(Cc1ccccc1)Nc1ccc(Br)cn1	9%	15%	16%[46.1 µM]	1%[46.1 µM]	/	3%	42%[activator]	/
S=c1nc(-c2csc3c2CCCC3)[nH][nH]1	-4%	0%	/	/	/	4%	-5%	/
O=C(Nc1ccc(S(=O)(=O)N2CCc3ccccc32)cc1)C(F)(F)F	24%	0%	14%	?	/	-1%	-23%	/
COCCCNC(=O)C1CCN(C(=O)c2cnn(-c3ccccc3)c2-n2cccc2)CC1	/	/	4%[46.1 µM]	22%[46.1 µM]	2%	/	-15%	-1.0%
OCCN(CCO)c1nc(-c2ccccc2)nc2c1oc1ccccc12	-1%	0%	/	/	/	-1%	-8%	/
CCN(CCCNC(=O)CCCN1C(=O)COc2ccc(C)cc21)c1cccc(C)c1	-18%	-11%	35%[14.3 µM]	?	25%	-82%	-23%	-2.0%
O=C(CC1C(=O)NCCN1Cc1cccc(F)c1)NC1CCCCCC1 (stereo not drawn)	-2%	-2%	-7%	-1%	/	27%	0%	/
CCn1c(=O)c2sccc2n2c(CCCC(=O)Nc3ccc(C)cc3)nnc12	/	/	-5%[46.1 µM]	/	-6%	/	-20%	0.4%
CCCc1cc(=O)[nH]c(SCC(=O)NCc2ccc3c(c2)OCO3)n1	26%	-2%	0%[46.1 µM]	0%[46.1 µM]	/	21%	-2%	/
Cn1c(C(=O)N2CCCC(C(=O)NCc3cccs3)C2)cc2sccc21 (stereo not drawn)	17%	5%	0%	-3%	0%	-10%	/	1.0%
CCC(C(=O)NC1CC1)n1nc(C)c2c(C)n(-c3ccccc3)nc2c1=O (stereo not drawn)	-6%	0%	?	18%[46.1 µM]	/	1%	-1%	/
CC/C(=N\Nc1ccccc1)c1c(O)[nH]c(=O)[nH]c1=O	22%	-2%	/	/	/	-1%	-1%	/
C=CCN(CC=C)C(=O)c1cccc(S(=O)(=O)N2c3ccccc3CC2C)c1 (stereo not drawn)	15%	-1%	/	/	/	7%	-19%	/
CN(C)/C(=N\S(=O)(=O)c1ccccc1)c1ccc(Cl)cc1	0%	-1%	/	/	/	1%	-18%	/
COc1ccccc1N1CCN(C(=O)c2ccc3[nH]c(C)c(C)c3c2)CC1	14%	-2%	/	/	/	-11%	-18%	/
CCN1CCN(c2oc(/C=C/c3ccccc3)nc2C#N)CC1	-3%	0%	/	/	/	-2%	6%	/
Cc1cc2c(C)nc3ccccc3c2o1	-12%	4%	14%	3%	0%	7%	-28%	-2.4%
COc1ccc(C(C)=O)cc1CSc1nnc(-c2ccccc2O)n1-c1ccccc1	-7%	-17%	-7%	?	2%	7%	-17%	-4.3%
O=C(NCc1cccc(Cl)c1)c1cc2c(s1)-c1ccccc1OC2	/	/	/	5%[46.1 µM]	?	/	8%	-16%
COc1ccc(CN2CCN(C(=O)COc3ccccc3)CC2)c(OC)c1	/	/	0%[46.1 µM]	4%[46.1 µM]	6%	/	-13%	0.3%
Cc1c(C(=O)N2CCN(Cc3ccc4c(c3)OCO4)CC2)sc2ncnc(N3CCN(c4ccccc4F)CC3)c12	-17%	-2%	/	/	/	-16%	28µM*	/
CCn1c(=O)n(CC)c2cc(N3CCCC3)c(NC(=O)c3cccc(C)c3)cc21	-15%	-4%	?	?	/	-13%	?	/
O=C(C1CCCO1)N1CCC2(CC1)OCCO2 (stereo not drawn)	-4%	4%	15%[14.3 µM]	5%	0%	-4%	-19%	6.1%
(cont.)
SMILES	RE007 growth inh	SARS PLP yeast	LASV entry inh	MARV entry inh	Cruzain inh noDet	NS1 function inh	2A StopGo	Cruzain Triton
O=C(NCc1ccco1)C1CCCN1C(=O)NCc1ccccc1 (stereo not drawn)	-1%	7%	0%	4%	5%	-2%	-2%	5.7%
CCOc1ccc(CCNC(=O)CCS(=O)(=O)c2ccc(Br)cc2)cc1OCC	5%	1%	/	/	/	5%	-28%	/
COc1ccccc1C1CC(c2ccccc2)Nc2ncnn21 (stereo not drawn)	-17%	3%	-17%	-17%	-7%	-5%	-9%	6.6%
CC(=O)c1cccc(NC(=O)CN2C(=S)NC(C)(C)CC2C)c1 (stereo not drawn)	-5%	0%	20%	5%[46.1 µM]	/	-8%	8%	/
